# Assay outcomes from PubChem.
# Rango-impB inh = qHTS Assay for Inhibitors of Rango (Ran-regulated importin-beta cargo) - Importin beta complex formation; Rango CFP/YFP FRET sensor + importin beta, 45 min; Potency, µM (highest dose often 92.2 µM), for inactives: at the top dose inhibition of complex formation; actives 0.031% (n = 340,000); active = rising FRET ratio curve, often small or poorly fitted; inconclusive = mostly compound fluorescence or quenching in the first reads; inactive = flat curves in all reads;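 further: potency means the concentration at half of the fitted maximal effect; 0% = DMSO wells and 100% = buffer wells lacking importin beta; nearly all actives have a fitted effect of over 15% in size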
#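 Inhibition scored from the CFP 486 nm/YFP 530 nm FRET ratio 45 min after adding 0.125 microM importin beta to 50 nM Rango biosensor preincubated 5 min with compound (room temperature, PBS with DTT, Tween-20, BSA). No-importin wells as positive control.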
# Rango release inh = qHTS Assay for Inhibitors of RanGTP induced Rango (Ran-regulated importin-beta cargo) - Importin beta complex dissociation. Potency, µM (doses to about 46.1 µM), without a hit: top-dose activity change, negative = inhibition. actives 0.071% (n = 340,000). Snurportin-1 (Homo sapiens) + GTP-binding nuclear protein Ran (Homo sapiens) + Importin …. Biochemical FRET Rango-importin beta, RanGTP-induced dissociation; active means falling FRET ratio curve, often poorly fitted, with flat reads before Ran was added; inconclusive means other falling curves, or compound fluorescence or quenching; inactive means flat or rising ratio curve;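 further: potency means the concentration at half of the fitted maximal effect; % of control where 0% means no effect; nearly all actives have a fitted effect of over 45% in size; -100% = wells without RanGTP and RCC1; the record marks most hits as doubtful in a second field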
#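 Recombinant Rango FRET biosensor (EYFP–snurportin 1 IBB–cerulean CFP10) at 0.1 uM premixed with 0.25 uM importin beta in PBS, 1 mM DTT, 0.02% Tween-20, 0.1% BSA. Compound added 5 min; RanGTP-RCC1 (0.6 uM Ran, 2 mM GTP, 0.2 uM RCC1) then triggers release, read at 45 min.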
# GLA inh pH 4.5 = qHTS Assay for Inhibitors of Human alpha-Galactosidase at pH 4.5 | purified enzyme, 4-MU-alpha-Gal fluorescence, pH 4.5 | 230,000 tested, under 10 active | activity change, negative = inhibition, % at 105 µM; inconclusive = small, poorly fitted or top-dose-only inhibition, or a rising curve; inactive = flat fitted curve, though single readings scatter; no compound was filed as active;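 further: 0% = full activity with enzyme and -100% = basal without enzyme; dose as in the result columns while the protocol names 77 µM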
# Target sequence (P06280 whole entry, looked up): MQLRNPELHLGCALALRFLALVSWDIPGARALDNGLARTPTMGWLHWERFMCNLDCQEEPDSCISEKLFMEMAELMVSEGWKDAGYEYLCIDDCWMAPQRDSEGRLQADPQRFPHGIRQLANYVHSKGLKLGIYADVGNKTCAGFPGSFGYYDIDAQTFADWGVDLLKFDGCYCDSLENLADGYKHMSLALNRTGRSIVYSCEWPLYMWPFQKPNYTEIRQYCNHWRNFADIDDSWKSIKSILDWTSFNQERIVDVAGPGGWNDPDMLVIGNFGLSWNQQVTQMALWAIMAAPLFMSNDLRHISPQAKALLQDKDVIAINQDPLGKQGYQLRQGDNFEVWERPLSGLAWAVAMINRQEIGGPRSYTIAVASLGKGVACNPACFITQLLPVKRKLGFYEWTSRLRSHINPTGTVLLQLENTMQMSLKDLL
# miR-21 reporter = qHTS Assay for Modulators of miRNAs and/orActivators of miR-21; HeLa miR-21 FLuc reporter, luciferase, 48 h; Potency, µM (titrated, usually from 38.3 µM), without a hit: at the highest dose reporter change, positive = more light; 340,000 tested, under 10 active; active = well fitted rising curve with a large enough effect; inconclusive = small, poorly fitted or top-dose-only effect; inactive = no such curve, though single readings can be large or run the other way;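 further: % of control where 0% means no effect; miR-21 action dims this reporter so a rising signal means less miR-21 action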
#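 HeLa cells stably expressing CMV-driven firefly luciferase with a downstream miR-21 binding sequence, endogenously expressing miR-21, were treated with titrations (up to about 40uM final) for 48 hours at 37 degree Celsius. Luciferase luminescence was read after lysis.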
# Numbers without * were called inactive; ? = inconclusive; · = not tested or not shown. The list is partial; the hit share may differ from the screen's.
SMILES,Rango-impB inh,Rango release inh,GLA inh pH 4.5,miR-21 reporter
CCn1cc([N+](=O)[O-])c(C(=O)N2N=C(c3ccccc3)CC2c2ccc([N+](=O)[O-])cc2)n1 (centres undefined),0.1%,-2%,5,-62%
O=C(Cc1ccc(Cl)c(Cl)c1)Nc1cccc2ncccc12,?,-23%,-19,9%
COCCN(C(=O)CCl)C(C(=O)NC1CCCCC1)c1ccccc1C (centres undefined),8.1%,1%,2,?
CC(C)C[C@H](NC(=O)c1nc[nH]c1C(=O)NCc1ccccc1)C(=O)OC(C)(C)C,-1.0%,16%,-10,0%
S=c1[nH]nc(CCc2nc3ccccc3[nH]2)n1-c1ccccc1,-2.6%,4%,0,5%
Cc1ccc(CSCC(=O)NN=C2CCN(C)CC2)cc1,5.0%,-8%,5,-2%
O=C(CCc1ccccc1)NCCc1nc2ccccc2[nH]1,0.1%,9%,5,1%
CCOC(=O)COn1c(SCC(=O)OCC)nc2ccccc2c1=O,3.1%,0%,7,-7%
COc1ccc(C(=O)NNC(=O)CSc2nnc(C)n2CC2CCCO2)cc1 (centres undefined),-0.2%,-10%,-20,-1%
COc1ccc(Cl)cc1NC(=O)CN(C)C(=O)c1cc2ccccc2cc1O,-5.5%,-10%,·,·
CN(C(=O)CN1C(=O)c2ccccc2S1(=O)=O)C1CCCCC1,-1.2%,0%,·,·
COc1ccc(CCNC(=O)Cn2nnc(-c3ccc(N4CCOCC4)cc3)n2)cc1OC,0.3%,9%,0,-15%
O=C(CSc1nc(=O)n(CCN2CCOCC2)c2c1CCC2)Nc1ccc(OC(F)(F)F)cc1,4.4%,6%,·,·
N#CC(C#N)=Cc1cccn1-c1ccc(S(N)(=O)=O)cc1,2.5%,-13%,-5,-1%
O=C(Nc1ccccc1C(F)(F)F)c1c(F)cccc1Cl,4.5%,6%,4,-1%
COc1ccc(CSCCc2n[nH]c(=S)n2-c2ccccc2)cc1C,0.7%,-10%,-14,-7%
CN1CCN(C(=O)C2=C[C@H](c3ccc4c(c3)OCO4)C[C@H](OCc3ccc(CO)cc3)O2)CC1,?,5%,3,-5%
CC(C)(C)C(=O)OCc1nc(-c2ccc(Cl)cc2)cs1,-0.2%,3%,-1,-34%
O=C(Nc1ccc2c(c1)C(=O)OC2)c1ccc(C(F)(F)F)cc1,1.7%,-4%,·,-12%
CC(C)NS(=O)(=O)c1ccc(NC(=O)C2CC3C=CC2C3)cc1 (centres undefined),0.5%,-2%,1,-23%
COc1ccc2c(c1)CCCC21NC(=O)N(CC(=O)NCc2cccs2)C1=O (centres undefined),-0.7%,19%,·,·
CCN(CCCNC(=O)CC(C(=O)N1CCc2ccccc21)n1ccnc1)c1cccc(C)c1 (centres undefined),0.3%,6%,-13,2%
C=C(C)Cn1c(N)cc(=O)nc1SCC(=O)Nc1cccc(C(F)(F)F)c1,0.6%,0%,·,0%
COc1ccc(NC(C)c2cc(Cl)ccc2O)cc1 (centres undefined),-2.2%,-4%,12,0%
Cc1ccc(Cl)cc1NC(=O)CN1CCN(S(=O)(=O)N2CCOCC2)CC1,0.0%,12%,·,6%

# Fetched one by one from the entries so far (three):
SMILES,Rango-impB inh,Rango release inh,GLA inh pH 4.5,miR-21 reporter
Cc1ccc(Cl)cc1NC(=O)CN1CCN(S(=O)(=O)N2CCOCC2)CC1,0.0%,12%,·,6%
CN(C(=O)CN1C(=O)c2ccccc2S1(=O)=O)C1CCCCC1,-1.2%,0%,·,·
CC(C)(C)C(=O)OCc1nc(-c2ccc(Cl)cc2)cs1,-0.2%,3%,-1,-34%

# Going on with the list.
SMILES,Rango-impB inh,Rango release inh,GLA inh pH 4.5,miR-21 reporter
CC(C)C(=O)NC(=S)Nc1ccccc1C(=O)NC1CCCCC1,-1.2%,8%,2,-3%
COc1ccc(-c2cc(C(=O)N3CCN(C(=O)c4ccco4)CC3)[nH]n2)cc1,-1.1%,?,·,-5%
O=C1N/C(=N/Nc2ccccc2)S/C1=C\c1ccccc1,2.6%,-1%,6,-34%
COc1ccc(N2CCN(C(=O)CN(c3ccc(Br)cc3)S(C)(=O)=O)CC2)cc1,0.8%,-5%,1,-3%
O=C(CCn1c(=O)oc2ccccc21)NC1=NCCS1,-3.5%,0%,0,-5%
CCCN(CCC)CCOc1cc(C)ccc1C(C)C,6.6%,5%,9,2%
CCCCn1c(SCC(=O)N(CC)C2CCS(=O)(=O)C2)nc2cc(S(N)(=O)=O)ccc21 (centres undefined),-0.2%,-4%,1,-1%
Cc1ccc(C2NC(=O)c3ccccc3N2)s1 (centres undefined),-3.9%,-12%,1,-23%
Cc1cc(Nc2cc(Cl)nc(Sc3ccc(NC(=O)C4CC4)cc3)n2)n[nH]1,6.6%,11%,·,·
N/C(=N\OS(=O)(=O)c1ccc2ccccc2c1)c1cccnc1,-0.6%,-19%,-3,-2%
Oc1csc(Cc2nc(-c3ccccc3F)cs2)n1,-1.3%,-16%,-4,-53%
c1cncc(-c2nc(-c3cccs3)cs2)c1,9.0%,8%,11,-27%
O=C1c2cc3ccccc3c(-c3ccccc3)c2C(=O)N1c1ccccn1,-2.7%,16%,10,-3%
Cc1cccc(NC(=O)/C(C#N)=C/c2cccc([N+](=O)[O-])c2)n1,-0.6%,2%,·,5%
Cn1c(=O)n(CC(=O)Nc2ccc(F)cc2)c2ccccc21,-2.5%,0%,4,-3%
Cc1nc2ccccc2nc(=O)c1NNc1ccccc1,?,-10%,-11,-45%
O=C(COC(=O)c1cc[n+]([O-])cc1)Nc1ccc(Cl)cc1Cl,-1.8%,-16%,·,·
O=C(c1ccccc1)c1nc2ccccc2[nH]c1=O,1.8%,-4%,0,-15%
Cc1noc(C)c1COC(=O)Cn1c(C)nc2ccccc21,-2.8%,7%,3,0%
COc1ccc(OC)c(CCNC(=O)CCc2nnc3ccc(N4CCCC4)nn23)c1,5.5%,-5%,·,-1%
O=S1(=O)CCC(NC(=S)SCCOc2ccccc2)C1 (centres undefined),0.7%,45%,-1,4%
Cc1ccc(S(=O)(=O)NCC(c2ccco2)N2CCc3ccccc32)cc1 (centres undefined),-1.1%,-1%,·,·
Cc1ccc(C(=O)Nc2ccc3cn[nH]c3c2)cc1S(=O)(=O)N1CCOCC1,0.8%,0%,0,-35%
O=C(Nc1nc(-c2ccco2)c(-c2ccco2)s1)c1ccco1,?,?,·,·
CC(C)(C)CN1CCNC(=O)C1CC(=O)NCc1cccc(-n2cccn2)c1 (centres undefined),-1.7%,7%,-17,1%

# Part of the list above, with the structure last:
Rango-impB inh	Rango release inh	GLA inh pH 4.5	miR-21 reporter	mol
-1.1%	-1%	·	·	Cc1ccc(S(=O)(=O)NCC(c2ccco2)N2CCc3ccccc32)cc1 (centres undefined)
-1.8%	-16%	·	·	O=C(COC(=O)c1cc[n+]([O-])cc1)Nc1ccc(Cl)cc1Cl

# Next part
SMILES,Rango-impB inh,Rango release inh,GLA inh pH 4.5,miR-21 reporter
O=C(NCc1ccc(/C=c2\sc3n(c2=O)CCN=3)o1)C(=O)Nc1ccccc1,·,·,5,-27%
Cc1cccc(N2C(=O)SC(SC(=Nc3ccccc3)Nc3ccccc3)C2=O)c1 (centres undefined),5.7%,0%,0,-47%
O=C(Nn1c(C2CC2)nc2ccccc2c1=O)c1ccco1,-5.5%,-4%,-1,-8%
Nc1cc(=O)[nH]c(SCC(=O)Nc2ccc(S(=O)(=O)N3CCCCC3)cc2)n1,-0.7%,-14%,-1,6%
CN(C)/C=C/C(=O)c1cnc(-c2ccccn2)s1,-1.9%,-4%,-5,-49%
Cn1cccc1C(=O)C(=O)Nc1ccc(F)c(F)c1,-2.2%,5%,-10,-33%
COc1ccc(NS(=O)(=O)c2ccc(C)c(C(=O)NCC(c3ccco3)N3CCCCC3)c2)cc1 (centres undefined),-0.5%,-4%,·,·
CCn1c(O)c(/C=C2\C=Nc3ccccc32)sc1=Nc1ccccc1,-0.7%,3%,-24,-65%
COc1ccc(CCNC(=O)CN(c2ccccc2)S(C)(=O)=O)cc1,-3.0%,0%,-5,-4%
Cc1ccc(O)c(C2=Nc3ccccc3N=C(c3cccc([N+](=O)[O-])c3)C2)c1,-1.1%,2%,-8,-28%
Cc1cc2nc(-c3cc(N4CCOCC4)ccc3[N+](=O)[O-])ccn2n1,-0.6%,-8%,-3,3%
Cc1ccccc1OCCOc1ccccc1C=C(C#N)C#N,·,·,1,-6%
CC(C)C(NC(=O)c1ccco1)C(=O)NCc1ccc(C(=O)O)cc1 (centres undefined),-3.8%,28%,·,2%
COc1cccc(CC2(CO)CCN(Cc3cnc(-c4cccc(C)c4)nc3)CC2)c1,-0.9%,-2%,-8,4%
CC1c2ccccc2N(S(=O)(=O)c2ccccc2)C1C (centres undefined),-2.5%,5%,·,·
CCN(CC)c1ccc(NC(=S)NC(=O)c2cccs2)cc1,-2.3%,10%,1,-64%
O=C(c1ccc(F)cc1)N1CCC(O)(c2cccnc2)CC1,2.7%,1%,6,-2%
CCCC(NC(=O)CCl)c1ccccc1 (centres undefined),0.5%,-9%,4,26%
O=C(CCN1C(=O)C2C3C=CC(C3)C2C1=O)Nc1ccccn1 (centres undefined),-2.0%,-6%,-5,0%
Cn1c(SCC(=O)NNC(=S)Nc2ccccc2)nnc1-c1ccncc1,·,·,5,0%
CCC(CC)C(=O)NCCCCc1ccccc1,3.4%,1%,-5,-1%
CC(C)[C@H]1COC(NC2=N[C@@H](C(C)C)CO2)=N1,1.1%,0%,·,-3%
O=C(COC(=O)c1ccc(CO)cc1)c1ccc(S(=O)(=O)N2CCCCC2)cc1,-1.8%,7%,·,·
O=C(CCCCCNC(=S)Nc1ccccc1)C[N+](=O)[O-],0.8%,12%,-1,-4%
COCC(=O)Nc1cc(C(=O)NCCc2ccccc2)ccc1Cl,-0.7%,4%,10,-15%
CN(c1ccc(F)cc1)S(=O)(=O)c1ccc(Cl)c(C(=O)NCC2(N3CCOCC3)CCCCC2)c1,5.7%,0%,·,·
CCOC(=O)c1nnn(-c2nonc2N)c1C,-6.8%,-19%,4,5%
CC(C)C(=O)Nc1c2c(nn1-c1ccc(F)cc1)CS(=O)(=O)C2,1.2%,8%,·,-2%
CNC(=O)NC(=O)Cn1cnc2sc(-c3ccccc3)cc2c1=O,4.5%,3%,-1,2%
CC(C)CCNC(=O)C(c1ccncc1)N(CC1CCCO1)C(=O)Cn1nnc(-c2ccc(F)cc2)n1 (centres undefined),?,11%,2,-3%
CC1=C(C(=O)Nc2ccccc2)C(c2ccco2)C(C#N)=C(SCc2ccccc2)N1 (centres undefined),·,·,-12,17%
COc1ccc(OC)c(CN2CCC(C(=O)N3CCN(c4ccccc4F)CC3)CC2)c1,6.6%,3%,3,-3%
COC(=O)c1ccccc1NC(=S)NC(=O)c1ccc(C)cc1,2.7%,-5%,-5,-21%
O=C(CCSc1nnc(-c2ccco2)o1)N1CCOCC1,4.6%,18%,-1,-9%
CCOc1ccc2nc(N(CCN(CC)CC)C(=O)/C=C/c3cccs3)sc2c1,?,-22%,·,-6%
CC(=O)c1c(N2CCOCC2)[nH]c(-c2ccccc2)nc1=S,-1.6%,-14%,6,-1%
COc1ccccc1-c1nnc(C2CCN(S(=O)(=O)c3ccccc3[N+](=O)[O-])CC2)o1,5.1%,-10%,·,-14%
O=C1S/C(=C/c2ccccc2)C(=O)N1CC(O)Cn1c2ccccc2c2ccccc21 (centres undefined),-4.1%,?,-13,6%
Cc1cc(N2CCCCC2)n2ncc(-c3ccccc3)c2n1,0.2%,25%,-5,-29%
O=C(CSc1ccccn1)Nc1ccc(Cl)c([N+](=O)[O-])c1,3.1%,26%,1,2%
